Assay outcomes from PubChem BioAssay.
VDR inhibitor: Inhibitors of the vitamin D receptor (VDR): qHTS; Vitamin D3 receptor (Homo sapiens), P11473; VDR-SRC2-3 peptide fluorescence polarization, 2 h; Potency, µM, for the others: max response, negative = inhibition, hits mostly inhibitors; 400,000 compounds, 0.93% hits; active = well fitted inhibition curve with a large enough effect; inconclusive = small, poorly fitted or top-dose-only effect, or another doubt; inactive = no such curve, though single readings can be large or run the other way; note: series mostly up to about 120 µM
Target sequence (P11473 whole entry, looked up): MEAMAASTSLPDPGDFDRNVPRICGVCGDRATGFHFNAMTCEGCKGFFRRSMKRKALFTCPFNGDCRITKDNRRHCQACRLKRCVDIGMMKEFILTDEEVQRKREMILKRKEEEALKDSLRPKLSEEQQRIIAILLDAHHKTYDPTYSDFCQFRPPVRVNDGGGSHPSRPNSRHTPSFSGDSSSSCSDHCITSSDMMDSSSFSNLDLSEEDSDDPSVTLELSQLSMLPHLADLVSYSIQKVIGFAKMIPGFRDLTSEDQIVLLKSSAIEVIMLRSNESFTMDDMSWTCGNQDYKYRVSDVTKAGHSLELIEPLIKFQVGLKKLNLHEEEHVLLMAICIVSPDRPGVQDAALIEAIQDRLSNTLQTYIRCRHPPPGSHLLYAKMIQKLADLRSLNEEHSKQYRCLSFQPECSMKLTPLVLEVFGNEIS
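Two reagent solutions held at 4 deg C in the dark were dispensed, compounds pinned at 23 nl, and the mixture incubated 2 h at room temperature. Read-out: fluorescence polarization of VDR–SRC2-3 peptide binding.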
Starred values were filed as active, the others as inactive. % is set by controls: 0 for no effect and ±100 for the full control effect; potency is the fitted concentration of half-maximal effect. Only part of the results is shown; the hit share may differ from the screen's.

A first look (3 entries):
`COc1ccc(OCc2nc(N)nc(Nc3ccccc3OC)n2)cc1` gave VDR inhibitor -4%.
`COc1ccccc1NC(=S)NC(NC(=O)c1ccco1)C(Cl)(Cl)Cl` (configuration not stated) gave VDR inhibitor -7%.
For O=C(OCc1c(Cl)cccc1Cl)c1cnccn1 the results were VDR inhibitor -18%.

All compounds of this part, repeating the preview:
`COc1ccc(OCc2nc(N)nc(Nc3ccccc3OC)n2)cc1` gave VDR inhibitor -4%.
`COc1ccccc1NC(=S)NC(NC(=O)c1ccco1)C(Cl)(Cl)Cl` (configuration not stated) gave VDR inhibitor -7%.
For O=C(OCc1c(Cl)cccc1Cl)c1cnccn1 the results were VDR inhibitor -18%.
Screening CC(=O)c1ccc(N=c2scc(C)n2C(C)C)cc1 returned VDR inhibitor 0%.
Screening CCOCC(=O)Nc1cccc(-c2nc3cccnc3s2)c1C returned VDR inhibitor -16%.
For COC(=O)CNC(=O)C(NC(=O)OCc1ccccc1)C(C)C (configuration not stated) the results were VDR inhibitor -2%.
`COC(=O)CSc1nnnn1-c1ccccc1` gave VDR inhibitor 12%.
`CCCSC1=C(C#N)C(c2ccc(Cl)cc2Cl)CC(=O)N1` (configuration not stated) gave VDR inhibitor 3%.
Screening CCCN(CCC)CCCNC(=O)CN1C(=O)CSc2ccc(S(=O)(=O)N3CCOCC3)cc21 returned VDR inhibitor -8%.
Screening O=C(O)CN1C(=O)c2ccc(C(=O)c3ccccc3)cc2C1=O returned VDR inhibitor 26%.
CCCOc1ccc(C2NC(=S)NC(C)=C2C(=O)c2ccccc2)cc1OC (configuration not stated) was read as VDR inhibitor -10%.
For O=C1COc2cc(S(=O)(=O)CCC(=O)N3CCN(c4ccccc4)CC3)c(Cl)cc2N1 the results were VDR inhibitor -1%.
CCNC(=S)N/N=C/c1cccc(C)c1 was read as VDR inhibitor -1%.
`CC(Oc1ccc([N+](=O)[O-])cc1)C(=O)NCC1CCCO1` (configuration not stated) gave VDR inhibitor -9%.
`O=S(=O)(c1ccc(Br)cc1)c1nnn2c1nc(Nc1cccc(C(F)(F)F)c1)c1sccc12` gave VDR inhibitor 17%.
Screening CCOc1ccc(C(=O)Oc2cc(C)[nH]c(=O)c2[N+](=O)[O-])cc1OCC returned VDR inhibitor -12%.
Screening O=C(CSc1nc2ccccc2[nH]1)NCc1ccccc1 returned VDR inhibitor -7%.
Screening Cc1ccc2cc(C)c(SCC(=O)NCC3CCCO3)nc2c1 (configuration not stated) returned VDR inhibitor -8%.
`O=C(O)C1C2C=CC(C2)C1C(=O)Nc1cccc(Cl)c1` (configuration not stated) gave VDR inhibitor -3%.
For CC1=C(C(=O)OCc2ccccc2)C(c2cccnc2)n2nnnc2N1 (configuration not stated) the results were VDR inhibitor -5%.

Reprinted from the results shown, 7 compounds:
`COc1ccc(OCc2nc(N)nc(Nc3ccccc3OC)n2)cc1` gave VDR inhibitor -4%.
`COc1ccccc1NC(=S)NC(NC(=O)c1ccco1)C(Cl)(Cl)Cl` (configuration not stated) gave VDR inhibitor -7%.
For O=C(OCc1c(Cl)cccc1Cl)c1cnccn1 the results were VDR inhibitor -18%.
Screening CC(=O)c1ccc(N=c2scc(C)n2C(C)C)cc1 returned VDR inhibitor 0%.
Screening CCOCC(=O)Nc1cccc(-c2nc3cccnc3s2)c1C returned VDR inhibitor -16%.
For COC(=O)CNC(=O)C(NC(=O)OCc1ccccc1)C(C)C (configuration not stated) the results were VDR inhibitor -2%.
`COC(=O)CSc1nnnn1-c1ccccc1` gave VDR inhibitor 12%.

The main list resumes; the four compounds before the break are reprinted first.
Screening O=C(CSc1nc2ccccc2[nH]1)NCc1ccccc1 returned VDR inhibitor -7%.
Screening Cc1ccc2cc(C)c(SCC(=O)NCC3CCCO3)nc2c1 (configuration not stated) returned VDR inhibitor -8%.
`O=C(O)C1C2C=CC(C2)C1C(=O)Nc1cccc(Cl)c1` (configuration not stated) gave VDR inhibitor -3%.
For CC1=C(C(=O)OCc2ccccc2)C(c2cccnc2)n2nnnc2N1 (configuration not stated) the results were VDR inhibitor -5%.
Screening CC(Sc1nc2ccc(Br)cc2[nH]1)C(=O)O (configuration not stated) returned VDR inhibitor 3%.
`COc1ccc(S(=O)(=O)N2CCN(c3nc(-c4cccnc4)nc4ccccc34)CC2)cc1` gave VDR inhibitor -6%.
CCOC(=O)COc1ccc(S(=O)(=O)c2ccc(OCC(=O)OCC)cc2)cc1 was read as VDR inhibitor -1%.
`COc1ccc(OC)c(NC(=O)C(=O)N/N=C/c2ccccc2[N+](=O)[O-])c1` gave VDR inhibitor 7%.
COc1ccc(OC)c(S(=O)(=O)NCc2ccc(N3CCN(C)CC3)cc2)c1 was read as VDR inhibitor -6%.
Screening CCOc1cc(C(=O)Nc2ccc(-c3nc4cc(Cl)ccc4o3)cc2)cc(OCC)c1OCC returned VDR inhibitor 12%.
For COc1ccc(C(=O)Nc2c(N)nc(SCC(=O)c3ccccc3)[nH]c2=O)cc1 the results were VDR inhibitor -5%.
COc1cc(NC(=O)CC2C(=O)N(c3ccc(Cl)cc3)C(=O)N2Cc2cccs2)cc(OC)c1 (configuration not stated) was read as VDR inhibitor 8%.
Screening CCCOC(=O)c1ccc(Oc2cn[nH]c2-c2ccc(OCC)cc2O)cc1 returned VDR inhibitor 0%.
Screening Cc1ccc(Nc2c(-c3ccc(C)cc3)nc3ccc(C)cn23)cc1 returned VDR inhibitor inconclusive.
Screening O=C(CSCc1ccc(Cl)cc1)Nc1cccc(C(=O)O)c1 returned VDR inhibitor -16%.
O=C(N/N=C/c1ccc2c(c1)OCO2)c1ccc(Cn2cc([N+](=O)[O-])cn2)o1 was read as VDR inhibitor -3%.
